Source: PubChem BioAssay
Mtb MenB inh: inhibitors of Mycobacterium tuberculosis MenB enzyme | P9WNP5 | MenB enzyme assay, absorbance read-out; some hits fall short of the stated cut | inhibition, %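 (about 12 µg/mL by stock and volumes)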 | actives 0.43% (n = 100,000) | AID 540299;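 active = mean of two replicates above 30%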;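 also: 0% = no compound and 100% = wells with inactive enzyme; the first replicate is given; strong numbers were not always called active; inactives centre near -10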
PV pol inh: inhibitors of poliovirus RNA polymerase binding and polymerization; poliovirus polymerase elongation, fluorescence polarization; hits give low values; % elongation, % (compound at 16.7 µg/mL); actives 0.66% (n = 150,000); AID 588519; in the data active = % elongation below about 90%; also: some results filed as inactive read as strong as hits
Target sequence (P03300 1749-2209 limits assumed): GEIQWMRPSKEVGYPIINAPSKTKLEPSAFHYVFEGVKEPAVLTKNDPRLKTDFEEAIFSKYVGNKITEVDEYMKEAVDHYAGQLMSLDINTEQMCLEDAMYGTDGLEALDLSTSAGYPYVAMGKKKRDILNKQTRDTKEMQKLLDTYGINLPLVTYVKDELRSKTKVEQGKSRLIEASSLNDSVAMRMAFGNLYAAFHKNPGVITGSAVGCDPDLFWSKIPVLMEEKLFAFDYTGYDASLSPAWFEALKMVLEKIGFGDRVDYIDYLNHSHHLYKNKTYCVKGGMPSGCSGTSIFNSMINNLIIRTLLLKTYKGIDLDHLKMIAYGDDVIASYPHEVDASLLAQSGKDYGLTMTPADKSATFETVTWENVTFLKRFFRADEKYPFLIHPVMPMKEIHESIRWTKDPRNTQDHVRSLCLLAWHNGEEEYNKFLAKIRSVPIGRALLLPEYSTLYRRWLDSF
Mtb MbtI inh: MbtI salicylate synthase inhibition; inhibition, %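 (about 17 µg/mL by stock and volumes)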; AID 493033; purified MbtI enzyme, fluorescence intensity read-out; actives 0.89% (n = 100,000); P9WFX0;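 active = above 50% in both replicates, above 80% if mildly self-fluorescent; inactive = the rest, strongly fluorescent compounds included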;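 also: 0% = mean of negative and 100% = mean of positive controls; one replicate is shown; some compounds called inactive have numbers as strong as hits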
Target sequence (P9WFX0 whole entry, looked up): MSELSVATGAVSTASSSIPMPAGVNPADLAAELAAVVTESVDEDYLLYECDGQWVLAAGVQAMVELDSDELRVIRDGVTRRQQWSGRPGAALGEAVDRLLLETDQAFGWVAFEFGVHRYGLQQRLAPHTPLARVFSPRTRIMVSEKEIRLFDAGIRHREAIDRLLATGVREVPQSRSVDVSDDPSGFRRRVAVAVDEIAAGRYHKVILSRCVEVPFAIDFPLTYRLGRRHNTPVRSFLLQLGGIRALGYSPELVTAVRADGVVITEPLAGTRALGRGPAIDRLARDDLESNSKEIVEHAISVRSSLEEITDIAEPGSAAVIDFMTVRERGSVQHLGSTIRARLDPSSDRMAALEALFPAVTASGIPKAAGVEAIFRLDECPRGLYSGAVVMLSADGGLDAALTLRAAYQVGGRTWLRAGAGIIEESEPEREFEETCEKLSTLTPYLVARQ
PV pol inh intensity: further read-out of PV pol inh, marked with its call; % elongation; measured here: total intensity read-out; formula for this scale not given here;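 total fluorescence in place of polarization; lower means less elongation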
* = called active by the depositor; . = not tested or not shown; & = joins results of further samples. Rows were taken by chance; about 1.8% have a hit in one of these screens.

SMILES | Mtb MenB inh | PV pol inh | PV pol inh intensity | Mtb MbtI inh
CCS(=O)(=O)c1ccc(O)c(NC(=O)CC(C)(C)CC(=O)O)c1 | -7 | 103 | 105 | 1
Cc1nn(-c2ccccc2)c2c1C1(C)CC(C)(O2)c2c(C)nn(-c3ccccc3)c2O1 | -29 | 98 | 101 | 1
COc1ccc(C2=Nc3ccccc3SC(c3ccccc3)C2)cc1 (configuration not stated) | -2 | 103 | 98 | 3
O=C(CSc1nc2c(sc3ccccc32)c(=O)n1-c1ccccc1)N1CCCC1 | -4 | 106 | 108 | 22
CC1CC1C(=O)OCc1ccc(Cl)cc1Cl (configuration not stated) | . | 103 | 107 | -3
Cc1ccc(S(=O)(=O)N(CC(=O)O)C2CCCCCC2)cc1 | -14 | 96 | 105 | -8
CCOc1ccccc1N1CCN(Cn2nc(-c3ccco3)oc2=S)CC1 | -7 | 101 | 99 | 17
CCCN(CCC)C(=O)CSc1nc2ccncc2[nH]1 | -25 | 99 | 101 | -5
Cc1cc(C(=O)CSc2ncc(-c3ccccc3)n2C)c(C)n1-c1ccc(S(N)(=O)=O)cc1 | -7 | 103 | 111 | -7
Cc1cccc(N=C=S)c1C | -11 | 101 | 110 | -12
Cc1cc(C(=O)COC(=O)CSc2nc3ccccc3o2)c(C)n1C | -8 | 96 | 99 | 10
O=C(O)c1ccccc1C(=O)N1CCN(Cc2ccncc2)CC1 | 22 | 103 | 112 | -5
NNC(=O)Cc1ccccc1 | -11 | 103 | 103 | -5
CCOC(=O)C1=C(C)NC(SC)=NC1c1cccs1 (configuration not stated) | 1 | 99 | 106 | .
O=C(Oc1ccccc1Cl)C1CCCCC1 | 3 | 99 | 104 | -4
CCC(Sc1nc2ccsc2c(=O)n1Cc1ccccn1)C(=O)Nc1cccc(OC)c1 (configuration not stated) | -11 | 102 | 100 | 18
O=C(NCC1CCCO1)C1CCN(Cc2ccccc2O)CC1 (configuration not stated) | -5 | 101 | 102 | -8
O=C(NCc1c(Cl)cccc1Oc1ccccc1)c1ccccc1 | -20 | 103 | 98 | -8
Cc1cccc(-n2c(SCC(=O)NC3(C#N)CCCC3)nc3ccccc3c2=O)n1 | -10 | 105 | 110 | -1
COc1cc(/C=C/C(=O)Nc2cccc3c(=O)[nH][nH]c(=O)c23)cc(S(=O)(=O)N2CCc3ccccc32)c1OC | -15 | 103 | 108 | 22
CN(C)C1(CNC(=O)C2CCN(S(=O)(=O)c3ccc4c(c3)OCCCO4)CC2)CCCCC1 | 12 | 99 | 101 | 8
COc1ccc(NC(=O)CN(C)C(=O)c2ccc(S(=O)(=O)N3CCOCC3)cc2)cc1 | -31 | 99 | 97 | -4
Cc1cccc(-c2noc(CSc3ccccc3)n2)c1 | -22 | 99 | 98 | -14
COc1ccc(C(=O)CNc2cccc(F)c2)cc1 | -11 | 107 | 105 | -2
C/C(=C\C(=O)c1ccc(Cl)cc1)Nc1ccncc1 | -32 | 101 | 104 | -3
O=C1c2cccnc2C(=O)N1Cc1ccc(S(=O)(=O)N2CCCCCC2)cc1 | -1 | 100 | 101 | -5
COc1ccc(S(=O)(=O)N2CCC(O)(c3cccnc3)CC2)cc1OC | -43 | 101 | 109 | -1
CC(C)NCC(O)c1cc(O)cc(O)c1 (configuration not stated) | 0&-2 | 101&101 | 101&102 | -7&-16
O=c1oc(C23CC4CC(CC(C4)C2)C3)ns1 | -27 | 73* | 79* | .
CC(C)c1ccc(C=NCCO)cc1 | -13 | 100 | 101 | -30
Cc1ccc(N2CC(C(=O)Nc3c(C(N)=O)oc4ccccc34)CC2=O)cc1 (configuration not stated) | -20 | 105 | 103 | -84
O=C(O)c1ccc(CS)cc1 | 13 | 101 | 103 | 4
O=C1CC[C@@]2(O)[C@H]3Cc4ccc(O)c5c4[C@@]2(CCN3CC2CC2)[C@H]1O5 | 1 | 99 | 105 | 2
CC(=O)Nc1ccc(C2Nc3cc(C)ccc3O2)cc1 (configuration not stated) | -27 | 111 | 117 | -3
O=C1CC(c2cccs2)SC(N(c2ccccc2)c2ccccc2)=N1 (configuration not stated) | -19 | 104 | 108 | 8
O=C(OCn1nnc2ccccc2c1=O)C1(c2ccc(Cl)cc2)CCCC1 | -28 | 104 | 106 | -9
N#Cc1c(Cl)cccc1NCC1(N2CCOCC2)CCCCC1 | -27 | 101 | 100 | 18
COC(=O)CC1C(=O)NCCN1C(=O)c1ccc2c(c1)S(=O)(=O)c1ccccc1C2=O (configuration not stated) | 12 | 102 | 106 | 1
COc1ccc(Cn2c(=O)[nH]c3cc(C(=O)NC4CCCCC4C)ccc32)cc1 (configuration not stated) | -68 | 105 | 98 | 2
CC(C)(C)NC(=O)NC(=O)CN1CCN(S(=O)(=O)/C=C/c2ccccc2)CC1 | -17 | 105 | 111 | -10
O=c1c2[nH]c(=S)[nH]c2cnn1-c1ccccc1 | 11 | 95 | 95 | 82
C=CCC(C(=O)OC)N1CCCCC1 (configuration not stated) | 23 | 100 | 102 | -6
CN1CCCN(C(=O)c2ccc(S(=O)(=O)N(C)C)cc2)c2nc3ccccc3nc21 | -74 | 99 | 107 | 1
CC1CCN(CC(=O)Nc2nccs2)CC1 | -3 | 102 | 102 | -11
O=C(NC1CCCCCCC1)C1CCCN(S(=O)(=O)c2cnc[nH]2)C1 (configuration not stated) | -1 | 105 | 107 | -9
COc1ccc(-c2cc(C(=O)N3CCCC3)c3ccccc3n2)cc1 | -24 | 101 | 107 | 98
CC(N)Cc1ccco1 (configuration not stated) | 16 | 103 | 107 | 1
CN(C(=O)COc1ccc(C#N)cc1)C1CCCCC1 | . | 100 | 106 | -12
CCNCc1c(C(=O)O)c(C)n(Cc2ccc(Cl)cc2)c1C | 10 | 100 | 96 | 13
N#Cc1cnn(-c2ccccc2)c1NC(=O)CN(Cc1ccccc1)Cc1ccccc1 | -40 | 104 | 106 | 5
C#CCn1c(=NC(=O)C(C)C)sc2c(C)cc(C)cc21 | -26 | 104 | 104 | -7
Cc1ccc(C(=O)OCC(=O)N(C)c2ccccc2)s1 | . | 101 | 102 | -2
NC(=O)C1CCCc2c1[nH]c1ccccc21 (configuration not stated) | -42 | 108 | 100 | 2
O=C(NCCCN1CCOCC1)c1cnn2c(C(F)(F)F)cc(-c3ccccc3)nc12 | -13 | 101 | 101 | -25
COc1ccc(-c2nn(-c3ccccc3)cc2C(=O)N(C)C)cc1 | 11 | 105 | 99 | -199
O=c1[nH]c(C(F)(F)F)nc2ccc3ccccc3c12 | . | 100 | 100 | -6
CCCc1cc(=O)n2[nH]c(-c3ccc(I)cc3)cc2n1 | -6 | 99 | 102 | 12
COc1ccc(CCNC(=O)C2CC2(c2ccc(C)cc2)c2ccc(C)cc2)cc1OC (configuration not stated) | -24 | 102 | 106 | -8
Oc1c(N=Nc2ccc3c(c2)OCO3)sc2ccccc12 | -19 | 94 | 97 | 3
CCn1c(COc2ccccc2C(C)C)nnc1SCc1nc2ccccc2c(=O)[nH]1 | -63 | 103 | 104 | -4

New compounds follow:
smiles,Mtb MenB inh,PV pol inh,PV pol inh intensity,Mtb MbtI inh
COc1ccc(CCNC(=O)c2ccc(N(C)S(C)(=O)=O)cc2)cc1,-6,101,99,0
CSc1nc(C)cc(SCCOc2ccccc2)n1,-27,101,104,5
CCC(CC)C(=O)Nc1cccc(NC(C)=O)c1,-16,101,105,-22
COc1ccc(NC(=O)CSc2cn(Cc3ccc(Cl)cc3)c3ccccc23)cc1,-38,102,99,9
S=C(Nc1cccc(Cl)c1)Nc1cc(-c2ccc(Cl)cc2)[nH]n1,-53,101,101,8
CCC(C)Nc1nc(Cl)nc(N(C#N)CN2C(=O)c3ccccc3S2(=O)=O)n1 (configuration not stated),6,101,104,7
CCc1ccc(NC(=O)C(C)N2CCN(S(=O)(=O)c3ccc(C)cc3C)CC2)cc1 (configuration not stated),-40,104,108,-3
NS(=O)(=O)c1ccc(CCNC(=O)CN2CCNC(=O)C2)cc1,-14,99,101,-46
Cc1nnsc1C(=O)Nc1ccccc1C(F)(F)F,4,99,100,5
Cc1ccc(/C=C/C(=O)N2CCN(c3cccc(C)c3C)CC2)cc1,-30,103,104,-6
OC1C2CCCC1C(N1CCCCC1)CC2 (configuration not stated),-2,99,102,-4
N#Cc1ccccc1CSc1nnc2c(Cl)cc(Cl)cn12,-32,111,127,2

An excerpt from above with just PV pol inh intensity and Mtb MenB inh:
| compound | PV pol inh intensity | Mtb MenB inh |
| --- | --- | --- |
| S=C(Nc1cccc(Cl)c1)Nc1cc(-c2ccc(Cl)cc2)[nH]n1 | 101 | -53 |
| CCC(C)Nc1nc(Cl)nc(N(C#N)CN2C(=O)c3ccccc3S2(=O)=O)n1 (configuration not stated) | 104 | 6 |
| CCc1ccc(NC(=O)C(C)N2CCN(S(=O)(=O)c3ccc(C)cc3C)CC2)cc1 (configuration not stated) | 108 | -40 |
| NS(=O)(=O)c1ccc(CCNC(=O)CN2CCNC(=O)C2)cc1 | 101 | -14 |
| Cc1nnsc1C(=O)Nc1ccccc1C(F)(F)F | 100 | 4 |
| Cc1ccc(/C=C/C(=O)N2CCN(c3cccc(C)c3C)CC2)cc1 | 104 | -30 |

New compounds follow
smiles,Mtb MenB inh,PV pol inh,PV pol inh intensity,Mtb MbtI inh
COc1ccc(-n2cc(C(=O)NCC3Cc4ccccc4O3)nn2)cc1 (configuration not stated),-15,100,103,-8
Cc1cccn2cc(CNC(=O)CC(C)(C)C)nc12,-3,102,102,109
O=C(N/N=C/c1ccco1)C12CC3CC(CC(C3)C1)C2,-1,99,104,19
COc1ccc(-c2nc3scc(CCNC(=O)Cc4ccccc4)n3n2)cc1,-4,107,102,3
CCOC(=O)c1c(C)[nH]c(C(=O)C(C)Sc2nncn2C(C)C)c1C (configuration not stated),7,105,104,23
CCn1c(C)c(C2=CCN(S(=O)(=O)c3cccc4nsnc34)CC2)c2ccccc21,-3,101,102,4
O=C(Cc1ccccc1)O/N=C/c1ccc2c(c1)OCO2,0,100,100,-13
O=c1cnnc(NCCN2CCOCC2)[nH]1,-15,100,99,-1
CCCCN(CC)S(=O)(=O)c1ccc(C(=O)Nc2ccccc2-c2nc3ccccc3[nH]2)cc1,-15,103,106,36
NC1=NC(c2ccccc2)n2c(nc(=O)c3ccccc32)N1 (configuration not stated),1,100,104,116
Cc1c(P(=S)(N2CCOCC2)N2CCOCC2)cc(C#N)n1C,-7,80*,85*,94*
N#Cc1ccc(C(=O)N(Cc2ccccc2)c2ccccn2)cc1,.,98,102,-4
CC(C)C(=O)Nc1cccc(NC(=S)NC(=O)/C=C/c2ccco2)c1,-13,103,118,6
Cc1nn(C)c2sc(C(=O)NN)cc12,-6,100,103,1
COc1ccc(/C=C/C(=O)N(C)c2ccccc2)cc1OC,.,104,106,3
CN(C)S(=O)(=O)c1ccc(C(=O)OCc2nc(-c3ccccc3)no2)cc1,9,107,107,-12
O=C(NC(=O)N1CCOCC1)c1cc(Br)cc(Br)c1,-4,107,114,-18
COc1ccc(C2(C(=O)NC3CCCCC3)CCCC2)cc1OC,-15,100,107,.
O=C(N=Nc1c(O)n(Cc2ccccc2)c2ccccc12)c1ccccc1O,4,101,102,-1
CCOC(=O)c1cnc(SCC(=O)Nc2ccc(C)cc2Cl)nc1N,-3,104,101,-4
CN1C(=O)CC(C(=O)NCCc2ccccc2)SC1=Nc1ccc(I)cc1 (configuration not stated),3,101,107,-10
Cc1ccc(CN2CCC(CNC(=O)Cn3c(=O)oc4ccccc43)CC2)cc1,2,98,101,15
O=C(COc1ccccc1O)NCCN1CCOCC1,-15,101,103,0
CN(C)C(=Nc1ccc(I)cc1)P(=O)(N(C)C)N(C)C,-23,100,97,12

The final two compounds of the part before lead into the next:
smiles,Mtb MenB inh,PV pol inh,PV pol inh intensity,Mtb MbtI inh
O=C(COc1ccccc1O)NCCN1CCOCC1,-15,101,103,0
CN(C)C(=Nc1ccc(I)cc1)P(=O)(N(C)C)N(C)C,-23,100,97,12
COc1ccc(C(=O)n2cnc3ccccc32)cc1OC,10,103,103,40
CCNc1nc(Oc2ccc(C(=O)OC)cc2)nc(SC)n1,-2,102,107,-3
CC1CCc2nc3ccc4ccccc4c3c(-c3ccc(O)c(O)c3)c2C1 (configuration not stated),-2,106,101,.
O=C(OCC(=O)N1CCCCC1)c1cccs1,.,104,99,1
O=C1CN(C(=O)CSc2ncnc3ccccc23)c2ccccc2N1,-9,100,110,-5
Cc1cc(C(=O)CO/N=C/c2ccco2)c(C)n1C,-10,99,104,40
CN(C)C(=O)n1c(SCc2ccccc2)nnc1-c1ccc(C(C)(C)C)cc1,-2,101,106,0
C[C@H]1[C@H](C)CC[C@]2(C(=O)O)CC[C@]3(C)C(=CCC4[C@@]5(C)CC[C@H](O)C(C)(C)[C@@H]5CC[C@]43C)[C@H]12 (some centres not stated),-3,100,99,-1
Cc1ccc(CC(=O)[C@@H]2[C@@H](c3ccoc3)C(C#N)(C#N)[C@H]3C=Cc4ccccc4N23)cc1,-33,138,189,.
COC(=O)c1ccc(COC(=O)c2ccc3c(c2)S(=O)(=O)N=C2CCCCCN23)o1,11,.,.,9
Cc1ccc(C)c(N2CCN(S(=O)(=O)c3ccc4[nH]c(=O)ccc4c3)CC2)c1,1,104,108,-15
O=C(COc1ccc(Br)cc1)N1CCOCC1,-12,102,102,4
Cc1cc(C(=O)Nc2ccc(CC(=O)O)cc2)cs1,8,100,103,-7
COC1(OC)c2nonc2C(OC)(OC)c2nonc21,15,100,102,-1
Cc1ccc(C)c(N2CCN(CCCNC(=O)c3nc(-c4cccnc4)no3)CC2)c1,1,102,102,-16
CN/C(=C\[N+](=O)[O-])NCCSCc1ccc(CN(C)C)o1,-4&-4,100&102,99&103,8&-5
Cc1ccc2c(c1)C1CN(C)CCC1N2C(=O)Cc1cccs1 (configuration not stated),.,101,102,-8
